RE007 growth inh: less growth of the S. pombe RE007 Vpr strain; 360,000 compounds, 0.21% hits; S. pombe RE007 Vpr strain, BacTiter-Glo ATP luminescence, 24 h; control for the full effect not named in the record; Potency, µM (titrated, usually from 92.2 µM), without a hit: at the highest dose activity change, negative = less growth; AID 651644; active = well fitted falling curve with a large enough effect; inconclusive = small, poorly fitted or top-dose-only effect; inactive = no such curve, though single readings can be large or run the other way;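 further: on the % scale 0 is the no-effect control and ±100 the full control effect; nearly all actives have a fitted effect of over 50% in size; the assay follows cell death caused by Vpr and the record does not say whether a fall means rescue or toxicity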
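Fission yeast strain RE007, carrying one chromosomally integrated HIV-1 vpr copy, was seeded at OD 0.01 in PMG+AL medium with 23 nL pinned compound. After 24 h at 30 °C and 99% humidity, viability was read by BacTiter-Glo luminescence.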
Cruzain noTriton: blocks cruzain activity in detergent-free assay; P25779; purified cruzain, Z-FR-AMC fluorescence, no detergent; Potency, µM, for the others: max response, negative = inhibition, hits mostly inhibitors; 200,000 compounds, 2.3% hits; AID 1476;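 further: plate controls were enzyme without inhibitor for no effect and buffer without enzyme for full effect; nearly all actives have a fitted effect of over 40% in size; top concentration of the series not given in the record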
Target sequence (P25779 123-467 limits assumed): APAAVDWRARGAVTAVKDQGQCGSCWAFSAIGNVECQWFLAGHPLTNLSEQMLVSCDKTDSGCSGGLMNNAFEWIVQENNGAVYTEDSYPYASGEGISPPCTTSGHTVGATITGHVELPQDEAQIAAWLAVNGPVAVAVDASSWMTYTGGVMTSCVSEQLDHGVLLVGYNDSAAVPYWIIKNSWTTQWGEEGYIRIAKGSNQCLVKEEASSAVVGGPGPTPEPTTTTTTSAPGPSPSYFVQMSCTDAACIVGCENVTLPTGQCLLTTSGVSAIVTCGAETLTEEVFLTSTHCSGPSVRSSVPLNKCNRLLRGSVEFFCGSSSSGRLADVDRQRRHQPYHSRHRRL
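Purified cruzain at 1.5 nM, pre-incubated 15 min with compound at room temperature in 100 mM sodium acetate pH 5.5, 5 mM DTT, 0.00005% Triton X-100. Reaction started with 2 uM Z-FR-AMC; AMC fluorescence increase over 60 s gives rate.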
SARS PLpro yeast: blocks SARS-CoV papain-like protease in a yeast assay; S. cerevisiae expressing SARS-CoV PLpro, growth rescue; control for the full effect not named in the record; Potency, µM (series often up to 32.9 µM), without a hit: at the top dose activity, positive = growth rescue; 330,000 compounds, 0.19% hits; AID 485353; active means well fitted rising curve with a large enough effect; inconclusive means small, poorly fitted or top-dose-only effect; inactive means no such curve, though single readings can be large or run the other way; further: 0% is about no effect; nearly all actives have a fitted effect of over 55% in size; growth read by luminescence after 48 h
NS1 function inh: blocks influenza NS1 protein function | S. cerevisiae slowed by influenza A NS1, growth recovery by OD600 | Potency, µM (top dose mostly 46.1 µM), for inactives: top-dose activity, positive = more growth | 270,000 compounds, 0.4% hits | AID 2326; active means well fitted rising curve with a large enough effect; inconclusive means small, poorly fitted or top-dose-only effect; inactive means no such curve, though single readings can be large or run the other way; further: nearly all actives have a fitted effect of over 50% in size
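In this qHTS, NS1 from influenza A is expressed in budding yeast, where it slows growth. Cells are switched from glucose to 2% galactose medium (pH 6.0, -URA), treated with compound, and growth recovery is read at OD600.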
StopGo reporter: FMDV 2A StopGo reporter, luciferase signal; human cells with a luciferase reporter of 2A StopGo recoding; control for the full effect not named in the record; Potency, µM (series often up to 57.9 µM), without a hit: at the top dose signal change, negative = less light; 410,000 compounds, 1.2% hits; AID 1159524; active = well fitted falling curve with a large enough effect; inconclusive = small, poorly fitted or top-dose-only effect; inactive = no such curve, though single readings can be large or run the other way; tested in HEK293T cells; further: on the % scale 0 is the no-effect control and ±100 the full control effect; nearly all actives have a fitted effect of over 45% in size; luciferase light after 4 h
MARV entry inh: blocks Marburg virus binding to or entry into cells; Marburg virus pseudotyped entry inhibition, cell reporter; control for the full effect not named in the record; about a third of the inactives were read at about 46 µM; Potency, µM (highest dose often 37.8 µM), without a hit: at the top dose activity change, negative = inhibition, actives largely listed as inhibitors; 300,000 compounds, 1.8% hits; active = well fitted inhibition curve with a large enough effect; inconclusive = small, poorly fitted or top-dose-only effect, or effect the other way; inactive = flat fitted curve, though single readings scatter; tested in HEK293 cells; about a fifth of its hits are not listed in these tables; further: on the % scale 0 is the no-effect control and ±100 the full control effect; luciferase read-out
Lassa entry inh: blocks Lassa virus binding to or entry into cells | Potency, µM (highest dose often 37.9 µM), for the others: at the top dose activity change, negative = inhibition, usual class: inhibitors | Lassa virus pseudotype entry inhibition, cell reporter; control for the full effect not named in the record | 300,000 compounds, 1.2% hits | AID 540256; active means well fitted inhibition curve with a large enough effect; inconclusive means small, poorly fitted or top-dose-only effect, or effect the other way; inactive means flat fitted curve, though single readings scatter; tested in HEK293 cells; further: on the % scale 0 is the no-effect control and ±100 the full control effect; nearly all actives have a fitted effect of over 50% in size; luciferase read-out
Cruzain inh Det: cruzain (T. cruzi) inhibition with detergent; P25779; purified cruzain, Z-FR-AMC fluorescence, 0.01% Triton; Potency, µM, for inactives: max response, negative = inhibition, actives largely listed as inhibitors; 200,000 compounds, 0.43% hits; AID 1478;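 further: plate controls were neutral wells for no effect and buffer without enzyme for full effect; nearly all actives have a fitted effect of over 40% in size; top concentration of the series not given in the record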
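In this qHTS format, compounds are incubated with 1.5 nM cruzain for 15 min at room temperature before 2 uM Z-FR-AMC is added. Release of AMC is followed at 360/450 nm, and progress is taken as the 60 s fluorescence difference.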
* marks the source's active call; other numbers are inactive results; ? = inconclusive; . = no result given; & = joins results of further samples; [ ] = dose if it differs, or a comment. Unless noted, the call rests on the fitted dose curve; in most records, active means well fitted curve in the direction sought with a large enough effect; inconclusive means small, poorly fitted or top-dose-only effect, or another doubt; inactive means no such curve, though single readings can be large; an effect the other way counts as inactive or inconclusive. Potency means the concentration at half of the fitted maximal effect.

SMILES	RE007 growth inh	Cruzain noTriton	SARS PLpro yeast	NS1 function inh	StopGo reporter	MARV entry inh	Lassa entry inh	Cruzain inh Det
Cc1ccc(CCNC(=O)Cn2nc(C)c3c(C)n(-c4ccc(C)cc4)nc3c2=O)cc1	.	-1%	.	.	?	.	-20%[46.1 µM]	-4.5%
CCOc1ccc(S(=O)(=O)Nc2ccc(C(=O)NCCCN3CCOCC3)cc2)cc1	5%	.	1%	.	11%	13%	6%	.
CCCCCCCCn1sccc1=O	-9%	-29%	-14%	.	28µM*	.	.	-13%
CCOC(=O)c1c(C)[nH]c(C)c1C(=O)COC(=O)C1CC(=O)N(CCc2ccccc2)C1 (stereo not given)	10%	.	7%	.	-16%	3%	4%	.
CC(C)C(=O)Nc1ccc(NC(=O)c2cccnc2)cn1	1%	4%	3%	-11%	10%	-2%	9%	-1.5%
O=C(COC(=O)Cc1ccsc1)NCC1CCCCC1	35%	1%	-3%	-8%	-2%	3%[46.1 µM]	-4%	4.2%
COc1ccc(NC(=O)N2CCCCCC2)c(OC)c1	1%	.	0%	-3%	1%	-4%[14.2 µM]	7%	.
COc1ccc(CC(=O)NCc2ccc3c(c2)CCN3C(=O)c2cccc(C)c2)cc1	.	4%	.	.	?	.	?	2.7%
CCN1CCN(C(=O)c2cc(=O)c3cc(C)ccc3o2)CC1	-14%	.	2%	-12%	0%	2%[46.1 µM]	5%[46.1 µM]	.
O=C(NCCc1ccccc1)c1cnc2sccn2c1=O	2%	-15%	23%	-10%	40%[activator]	.	.	-5.9%

The list goes on (7 carried over from the part before).
SMILES	RE007 growth inh	Cruzain noTriton	SARS PLpro yeast	NS1 function inh	StopGo reporter	MARV entry inh	Lassa entry inh	Cruzain inh Det
CCOC(=O)c1c(C)[nH]c(C)c1C(=O)COC(=O)C1CC(=O)N(CCc2ccccc2)C1 (stereo not given)	10%	.	7%	.	-16%	3%	4%	.
CC(C)C(=O)Nc1ccc(NC(=O)c2cccnc2)cn1	1%	4%	3%	-11%	10%	-2%	9%	-1.5%
O=C(COC(=O)Cc1ccsc1)NCC1CCCCC1	35%	1%	-3%	-8%	-2%	3%[46.1 µM]	-4%	4.2%
COc1ccc(NC(=O)N2CCCCCC2)c(OC)c1	1%	.	0%	-3%	1%	-4%[14.2 µM]	7%	.
COc1ccc(CC(=O)NCc2ccc3c(c2)CCN3C(=O)c2cccc(C)c2)cc1	.	4%	.	.	?	.	?	2.7%
CCN1CCN(C(=O)c2cc(=O)c3cc(C)ccc3o2)CC1	-14%	.	2%	-12%	0%	2%[46.1 µM]	5%[46.1 µM]	.
O=C(NCCc1ccccc1)c1cnc2sccn2c1=O	2%	-15%	23%	-10%	40%[activator]	.	.	-5.9%
C/C=N/N(c1ccccc1)c1ccccc1	-1%	.	1%	-56%	-17%	.	.	.
CCOC(=O)C1=C(C)N=C2SC(C(=O)OC)=CC(=O)N2C1c1ccc(F)cc1 (stereo not given)	-22%	?	-13%	?	-13%	-3%	-9%	-20%
COc1ccc(C[C@H]2CN3C(=NC[C@@H]3C(C)C)N2C[C@H](C)NC(=O)c2ccc(C)c(Br)c2)cc1	2%	.	0%	4%	-15%	.	.	.
CCOc1ccc(CNS(=O)(=O)c2ccc(-c3ccc(=O)[nH]n3)o2)cc1OC	-4%	.	1%	6%	-16%	.	.	.
S=C(NCc1ccco1)N1CCC(c2nc3ccccc3o2)CC1	10%	.	1%	.	-16%	7%[46.1 µM]	15%[46.1 µM]	.
O=C(COC(=O)c1ccc(O)cc1)NC(c1ccccc1)c1ccccc1	1%	.	0%	.	?	30%	-18%	.
CN(CC(=O)Nc1ccc(F)cc1)C(=O)CN1C(=O)NC2(CCCC2)C1=O	-9%	.	-3%	.	-17%	?	5%	.
CC1Cc2ccccc2N1C(=O)c1cc2sccc2n1Cc1ccc(F)cc1 (stereo not given)	0%	?	-25%	22%	-11%	-28%	-4%	-6.3%
CS(=O)(=O)N(CC(=O)Nc1ccc(CC#N)cc1)c1ccc(C23CC4CC(CC(C4)C2)C3)cc1	11%	-24%	-7%	-10%	.	?	?	-6.5%
CCc1ccc(N2C(=O)C3C4CCC(C4=C(C)C)C3C2=O)cc1 (stereo not given)	11%	-6%	18%	-4%	-9%	1%	1%	-1.7%
CCC1=NN(C(=O)Cc2ccc([N+](=O)[O-])cc2)C(O)(C(F)(F)F)C1 (stereo not given)	-4%	.	0%	0%	-10%	.	.	.
CCOC1=C/C(=C/c2c(N)n3nc(CC(=O)N4CCCC4)sc3nc2=O)C=CC1=O	-10%	.	-2%	12%	-25%	19%[46.1 µM]	5%[46.1 µM]	.
Cc1cc(S(=O)(=O)N2CCOCC2)ccc1OCC(=O)N1CCC(C(N)=O)CC1	0%	.	1%	-12%	12%	13%[46.1 µM]	-9%[46.1 µM]	.
CCCCNC(=O)c1onc(CSc2cc(C)ccc2C)c1C(=O)O	-6%	7%	-17%	4%	?	.	.	-3.5%
CCOCCn1c(SC)nc2c1c(=O)[nH]c(=O)n2C	0%	1%	0%	2%	-4%	11%&11%	2%	4.2%
C1CC(=NN=C2CCSCC2)CCS1	-10%	.	.	.	-13%	6%[46.1 µM]	?	.
c1ccc(CNC23CC4CC(CC(C4)C2)C3)nc1	5%	.	0%	.	11%	20%[46.1 µM]	.	.
Cc1cc(Cl)c(S(=O)(=O)N2CCSCC2)cc1OCC(N)=O	2%	1%	-4%	-1%	-14%	-30%	-14%	3.4%
CCCS(=O)(=O)N1CCN(C(=O)COc2ccc(OC)cc2)CC1	-2%	3%	18%	-3%	-10%	?	1%	0.9%
CC(C)CCNC(=O)c1cc(-c2ccncc2)nc2ccc(S(=O)(=O)N3CCOCC3)cc12	4%	?	23%	9%	5%	0%&44%	2%&4%	1.3%
CN(CC(=O)N1CCN(C2CCCCC2)CC1)S(=O)(=O)c1cccc2nsnc12	-12%	-15%	7%	-1%	17%	2%&2%	10%	-1.9%
Cc1ccc(C(=O)N(CC(=O)NC2CCCCC2)c2ccccc2C)s1	-1%	9%	-2%	-9%	.	-8%	8%	-3.9%
CCOc1ccc2[nH]c3c(N4CCN(C(=O)c5ccco5)CC4)ncnc3c2c1	-13%	.	0%	-8%	-20%	?	?	.
Cc1ccc(OP(=O)(NCc2ccccc2)Oc2ccc(C)cc2)cc1	53%	-1%	-40%	-38%	30%	?	?	-9.6%
CCc1cc(C(=O)O)c(NC(=O)/C=C/c2ccc(OC)cc2)s1	-8%	.	0%	-38%	66%[activator]	.	.	.
O=C(O)Cc1ccc(NC(=O)c2ccc3c(c2)C(=O)N(Cc2ccco2)C3=O)cc1	7%	.	-5%	10%	-8%	1%	-3%	.
CC(=O)N1CCCc2cc(S(=O)(=O)NC(C(=O)NC3CCCCC3)C(C)C)ccc21 (stereo not given)	6%	1%	5%	-3%	-3%	-6%	-2%	-2.2%
CCOC(=O)C1=C2c3cc(OC)c(OC)cc3CC(C)(C)N2C(=O)C1=O	-5%	4%	0%	8%	-8%	?	2%	-9.2%
CC(=O)Nc1ccc(S(=O)(=O)N(C)CC(=O)OC(C)C(=O)NC2CCCCC2)cc1 (stereo not given)	-6%	.	2%	.	-1%	?	-13%	.
C/C(=N/NC(=O)c1ccc2c(c1)OCCO2)c1ccc([N+](=O)[O-])cc1	9%	.	1%	0%	3%	11%[46.1 µM]	?	.
Cc1cccc(NC(=O)c2sc3nc(-c4ccccc4)cn3c2C)n1	-6%	?	-5%	-9%	.	?	?	-3.9%
CCCCn1c(SCC(=O)NCc2ccc(OC)c(C(=O)O)c2)nc2cc(S(N)(=O)=O)ccc21	26%	.	1%	-5%	1%	2%[46.1 µM]	1%	.
COc1cccc(CNc2nc(-c3cccnc3)nc3ccccc23)c1	5%	.	-23%	.	?	-28%	-29%	.
Cn1ccc2cc(S(=O)(=O)N3CCCN(C(=O)Nc4ccccc4Br)CC3)ccc21	.	?	.	.	-13%	.	0%[46.1 µM]	-3.7%
O=C(Nc1cccc(-c2nc3ncccc3o2)c1)c1ccccc1	7%	.	-3%	-36%	2%	.	.	.
O=C(COC(=O)c1cc(C(F)(F)F)cc(C(F)(F)F)c1)NCc1ccc(Cl)cc1	45%	-11%	10%	-5%	-19%	-3%	-1%	0.7%
Cc1cc(=O)oc(C)c1C(=O)OCC(=O)c1ccc(Cl)c(Cl)c1	-20%	2%	0%	-3%	?	23%&23%	-5%	-1.4%
COc1ccc2oc(=O)c(-c3nnc(-c4ccc(C)cc4)o3)cc2c1	.	-7%	.	.	-5%	.	22%[46.1 µM]	11%
CN1CN(c2ccccc2)C2(CCN(CCCSc3ccccc3NC(=O)/C=C/c3ccccc3)CC2)C1=O	0%	.	.	.	0%	?	?	.
CCCn1c(N)c(C(=O)COC(=O)CCNS(=O)(=O)c2ccccc2F)c(=O)[nH]c1=O	6%	.	2%	.	-11%	-3%	-18%	.
COc1ccc(CN(C(=O)c2cc3ccccc3oc2=O)C2CCS(=O)(=O)C2)cc1 (stereo not given)	0%	-1%	4%	-4%	56%&25%[activator]	?	11%	-3.7%
O=C(CN(c1ccc(Cl)c(Cl)c1)S(=O)(=O)c1ccccc1)N1CCc2ccccc2C1	-20%	-30%	-3%	29%	7%	?	-23%	5.5%
Nc1nnc(C(F)(F)F)s1	-10%	.	-1%	7%	-3%	.	.	.

Source: PubChem BioAssay (National Center for Advancing Translational Sciences (NCATS))
